Source: PubChem (National Center for Advancing Translational Sciences (NCATS))
StopGo reporter – High Throughput Screening for Foot and Mouth Disease Virus Antivirals; human cells with a luciferase reporter of 2A StopGo recoding; control for the full effect not named in the record; Potency, µM (highest dose often 57.9 µM), inactives show at the highest dose signal change, negative = less light; 410,000 tested, 1.2% active; AID 1159524, 2015; active = well fitted falling curve with a large enough effect; inconclusive = small, poorly fitted or top-dose-only effect; inactive = no such curve, though single readings can be large or run the other way; tested in HEK293T cells; also: % is scaled to controls: 0 for no effect and ±100 for the full control effect; nearly all actives have a fitted effect of over 45% in size; luciferase light after 4 h
Cruzain Triton – qHTS Assay for Promiscuous and Specific Inhibitors of Cruzain (with detergent); AID 1478, 2009; Potency, µM, inactives show max response, negative = inhibition, actives largely listed as inhibitors; 200,000 tested, 0.43% active; purified cruzain, Z-FR-AMC fluorescence, 0.01% Triton; Cruzipain (Trypanosoma cruzi), P25779;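 also: plate controls were neutral wells for no effect and buffer without enzyme for full effect; nearly all actives have a fitted effect of over 40% in size; top concentration of the series not given in the record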
Target sequence (P25779 123-467 limits assumed): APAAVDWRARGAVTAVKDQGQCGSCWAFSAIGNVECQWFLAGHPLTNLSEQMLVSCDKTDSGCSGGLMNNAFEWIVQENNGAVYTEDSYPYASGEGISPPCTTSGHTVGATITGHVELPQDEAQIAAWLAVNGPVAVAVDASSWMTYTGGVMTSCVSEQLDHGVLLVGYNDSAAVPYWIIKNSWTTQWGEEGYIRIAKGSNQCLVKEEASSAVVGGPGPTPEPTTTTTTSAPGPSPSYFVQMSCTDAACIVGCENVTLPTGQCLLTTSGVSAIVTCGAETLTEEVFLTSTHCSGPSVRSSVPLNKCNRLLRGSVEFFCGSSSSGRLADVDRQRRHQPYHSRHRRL
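Compounds were screened in titration against cruzain (1.5 nM) with 0.01% Triton X-100 to counter colloidal aggregation. Activity was the AMC fluorescence increase over 60 s after adding 2 uM Z-FR-AMC at pH 5.5.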
Cruzain inh noDet – qHTS Assay for Promiscuous and Specific Inhibitors of Cruzain (without detergent); Cruzipain (Trypanosoma cruzi), P25779; purified cruzain, Z-FR-AMC fluorescence, no detergent; Potency, µM, for inactives: max response, negative = inhibition, hits mostly inhibitors; 200,000 tested, 2.3% active;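 also: plate controls were enzyme without inhibitor for no effect and buffer without enzyme for full effect; nearly all actives have a fitted effect of over 40% in size; top concentration of the series not given in the record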
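Purified cruzain at 1.5 nM, pre-incubated 15 min with compound at room temperature in 100 mM sodium acetate pH 5.5, 5 mM DTT, 0.00005% Triton X-100. Reaction started with 2 uM Z-FR-AMC; AMC fluorescence increase over 60 s gives rate.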
Marburg entry inh – qHTS for inhibitors of binding or entry into cells for Marburg Virus. Potency, µM (titrated, usually from 37.8 µM), without a hit: at the highest dose activity change, negative = inhibition, usual class: inhibitors. AID 540276, 2011. Marburg virus pseudotyped entry inhibition, cell reporter; control for the full effect not named in the record; about a third of the inactives were read at about 46 µM. 300,000 tested, 1.8% active; active = well fitted inhibition curve with a large enough effect; inconclusive = small, poorly fitted or top-dose-only effect, or effect the other way; inactive = flat fitted curve, though single readings scatter; tested in HEK293 cells; about a fifth of its hits are not listed in these tables; also: % is scaled to controls: 0 for no effect and ±100 for the full control effect; luciferase read-out
Lassa entry inh – qHTS for Inhibitors of binding or entry into cells for Lassa Virus | Potency, µM (series often up to 37.9 µM), for the others: at the highest dose activity change, negative = inhibition, hits mostly inhibitors | 300,000 tested, 1.2% active | Lassa virus pseudotype entry inhibition, cell reporter; control for the full effect not named in the record; active means well fitted inhibition curve with a large enough effect; inconclusive means small, poorly fitted or top-dose-only effect, or effect the other way; inactive means flat fitted curve, though single readings scatter; tested in HEK293 cells; also: % is scaled to controls: 0 for no effect and ±100 for the full control effect; nearly all actives have a fitted effect of over 50% in size; luciferase read-out
NS1 inh – qHTS Assay for Inhibitors of Influenza NS1 Protein Function. S. cerevisiae slowed by influenza A NS1, growth recovery by OD600. Potency, µM (doses to about 46.1 µM), inactives show at the top dose activity, positive = more growth. 270,000 tested, 0.4% active. AID 2326, 2010; active means well fitted rising curve with a large enough effect; inconclusive means small, poorly fitted or top-dose-only effect; inactive means no such curve, though single readings can be large or run the other way; also: nearly all actives have a fitted effect of over 50% in size
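Read-out: OD600 growth recovery of NS1-expressing budding yeast. Cells grown overnight at 30C in -URA glucose medium, washed, resuspended and diluted 1:100 in 2% galactose assay medium, pH 6.0. Same strain lacking NS1 served as positive control.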
SARS PLpro yeast – qHTS of Yeast-based Assay for SARS-CoV PLP; 330,000 tested, 0.19% active; S. cerevisiae expressing SARS-CoV PLpro, growth rescue; control for the full effect not named in the record; Potency, µM (highest dose often 32.9 µM), for inactives: at the highest dose activity, positive = growth rescue; active means well fitted rising curve with a large enough effect; inconclusive means small, poorly fitted or top-dose-only effect; inactive means no such curve, though single readings can be large or run the other way; also: 0% is about no effect; nearly all actives have a fitted effect of over 55% in size; growth read by luminescence after 48 h
RE007 growth inh – qHTS Assay for Inhibitors of the HIV-1 protein Vpr; Potency, µM (highest dose often 92.2 µM), for the others: top-dose activity change, negative = less growth; S. pombe RE007 Vpr strain, BacTiter-Glo ATP luminescence, 24 h; control for the full effect not named in the record; AID 651644, 2012; 360,000 tested, 0.21% active; active = well fitted falling curve with a large enough effect; inconclusive = small, poorly fitted or top-dose-only effect; inactive = no such curve, though single readings can be large or run the other way;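 also: % is scaled to controls: 0 for no effect and ±100 for the full control effect; nearly all actives have a fitted effect of over 50% in size; the assay follows cell death caused by Vpr and the record does not say whether a fall means rescue or toxicity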
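Fission yeast strain RE007, carrying one chromosomally integrated HIV-1 vpr copy, was seeded at OD 0.01 in PMG+AL medium with 23 nL pinned compound. After 24 h at 30 °C and 99% humidity, viability was read by BacTiter-Glo luminescence.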
An asterisk follows results filed as active; ? = inconclusive; / = no result given; & = joins results of further samples; [ ] = remark or other dose. Unless noted, calls follow the shape of the dose curve; as a rule, active = well fitted curve in the direction sought with a large enough effect; inconclusive = small, poorly fitted or top-dose-only effect, or another doubt; inactive = no such curve, though single readings can be large; an effect the other way counts as inactive or inconclusive. Potency is read from the fitted curve at half-maximal effect. Compounds were not picked by outcome. About 4.7% of those tested had a hit in this group.

Results follow in this order: StopGo reporter | Cruzain Triton | Cruzain inh noDet | Marburg entry inh | Lassa entry inh | NS1 inh | SARS PLpro yeast | RE007 growth inh
> O=C(Cc1ccc(Cl)c(Cl)c1)OCC(=O)c1ccc[nH]1
  -8% | -11% | -2% | 8% | 2% | -59% | -14% | ?
> CC(Cc1ccccc1Sc1ccccc1O)N(C)C (configuration not stated)
  -11% | 2.0% | -13% | ? | -23% | -7% | 0% | -6%
> NC(=O)c1ccc(NC(=O)CCCN2C(=O)c3ccccc3C2=O)cc1
  2% | -3.5% | 0% | -1% | 26% | -2% | -2% | 0%
> CN(C)C(=O)C1CCC(=O)N1Cc1cccs1 (configuration not stated)
  -7% | / | / | -7% | -1% | 5% | 0% | 0%
> Cc1ccc(CCNC(=O)CN(C)S(=O)(=O)c2ccc3c(c2)n(C)c(=O)c(=O)n3C)cc1
  -18% | / | / | 4%[46.1 µM] | -1%[46.1 µM] | 2% | 0% | -21%
> COc1ccc(C(=O)Nc2ccc(NC(=O)c3cccc(F)c3)cn2)cc1
  -14% | / | / | -1% | 1% | 2% | 7% | 6%
> Cc1ccc(OC(C)C(=O)N(Cc2cccs2)C2CCS(=O)(=O)C2)cc1C (configuration not stated)
  -8% | / | / | ? | ? | -4% | 0% | 1%
> CCCn1c(=NC(=O)c2ccc3c(c2)OCO3)c(C#N)cc2c(=O)n3cccc(C)c3nc21
  / | 3.7% | -11% | / | / | -63% | -4% | /
> CSc1ccc(S(=O)(=O)NCc2ccc(Cl)cc2)cc1
  37%[activator] | -4.7% | -12% | -5% | 0% | 3% | -1% | -3%
> COc1ccc(C(=O)[C@H]2[C@H]3C(=O)N(c4ccc(C)cc4)C(=O)[C@H]3C3C=CC=NN32)cc1 (some centres not stated)
  2% | / | / | 9%[46.1 µM] | 15% | 14% | 2% | -5%
> O=C1NCC(=O)N(Cc2ccccc2)/C1=C/c1ccccc1
  -6% | / | / | 10%[46.1 µM] | 23%[46.1 µM] | / | -1% | 3%
> NNc1nc2ccccc2nc1C(F)(F)F
  13% | / | / | 3%[46.1 µM] | 5% | -5% | 2% | 0%
> O=C(CSc1nc2ccccc2o1)N1c2ccccc2Sc2ccc(C(F)(F)F)cc21
  -28% | -2.3% | ? | -20% | 22% | 6% | -2% | 9%
> CC(=O)O[C@H]1C[C@@]2(O)[C@@H](OC(=O)c3ccccc3)C3[C@@](C)([C@@H](O)C[C@H]4OC[C@@]34OC(C)=O)[C@@H](O)[C@H](OC(C)=O)C(=C1C)C2(C)C (some centres not stated)
  6% | / | / | / | / | -18% | -14% | 12%
> O=C(Cn1cc(S(=O)(=O)c2ccccc2)c(=O)c2cc(Cl)ccc21)Nc1ccc2c(c1)OCO2
  23% | -1.8% | -8% | 4%[46.1 µM] | -6%[46.1 µM] | / | / | /
> O=C(NNC(=O)c1cnccc1C(F)(F)F)c1cccc(Cl)c1
  7% | / | / | 0%[46.1 µM] | -6%[46.1 µM] | 0% | 0% | -2%
> C=CCOC(=O)C1=C[C@H](c2coc3ccccc3c2=O)C[C@H](OCc2ccc(CO)cc2)O1
  -7% | / | / | / | / | -10% | -3% | -5%
> Cc1nc(Cl)sc1C(=O)Nc1cccc(Cl)c1C
  -8% | -4.1% | 6% | 6% | 9% | -3% | -18% | -6%
> CN(c1ccccc1)c1ccc(/C=C(\CCC(=O)O)c2nc3ccccc3s2)cc1[N+](=O)[O-]
  -20% | ? | 29% | -11% | 2% | 9% | 8% | 8%
> Cc1occc1C(=O)N1CCC2(CCCN(Cc3ccc(F)c(F)c3)C2)C1 (configuration not stated)
  ? | / | / | ? | -36% | 10% | -1% | 7%
> CC(=O)c1ccc2c(c1)OCCOCCOc1ccc(C(C)=O)cc1OCCOCCO2
  5% | / | / | / | / | 3% | 2% | 4%
> CCOCCCNC(=O)C1CCCN1S(=O)(=O)c1ccc(Cl)cc1 (configuration not stated)
  -4% | 4.5% | -8% | 2% | 4% | 0% | -1% | 4%
> Cc1cc(C)nc(NS(=O)(=O)c2ccc(N/C=C\C(=O)c3cccs3)cc2)n1
  113%[activator] | / | / | 3%[46.1 µM] | -1% | 2% | 0% | -26%
> O=C1CS/C(=N/N=C/c2cccs2)N1Cc1ccc(F)cc1
  -29% | / | / | / | / | -8% | 1% | 18%
> O=c1ccc2ccccc2n1Cc1cccc(F)c1
  10% | / | / | / | / | -2% | 1% | 13%
> COC(=O)CCSCC(=O)Nc1nnc(C)s1
  -15% | 2.1% | -1% | / | / | -6% | 0% | 9%
> CC(CCc1ccccc1)NC(=O)C(=O)NCc1ccccc1 (configuration not stated)
  -6% | 1.8% | ? | ? | 0% | 15% | -22% | /
> O=C(Nc1ccc(N2CCN(C(=O)c3ccc(Cl)cc3)CC2)cc1)c1cccnc1
  -1% | 3.8% | -10% | -16% | -6% | 0% | -6% | 8%
> Cc1ccc(NC(=O)Cn2c(=O)n(Cc3nc(C)no3)c(=O)c3ccccc32)c(Cl)c1
  -14% | -1.9% | -3% | / | -2%[46.1 µM] | / | / | /
> COc1ccc(OC)c(S(=O)(=O)N(C)CC(=O)N2CCN(c3cccc(Cl)c3)CC2)c1
  ? | 1.1% | ? | ? | -8% | -10% | -1% | 2%
> CC1CCCCN1S(=O)(=O)c1ccc(C(=O)Nc2nnc(-c3ccco3)o2)cc1 (configuration not stated)
  0% | / | / | ? | ? | -19% | 5% | ?
> COc1ccc(/C=C2/C(=N)N3N=C(CC(=O)N4CCCC4)SC3=NC2=O)cc1
  -11% | / | / | 2%[46.1 µM] | 29%[46.1 µM] | 15% | ? | 5%
> COc1ccccc1CC(=O)OC(C)C(=O)Nc1ccc(S(=O)(=O)N2CCCCC2)cc1 (configuration not stated)
  -24% | / | / | ? | -16% | / | 2% | 1%
> Cc1ccc(S(=O)(=O)n2nc(OC(=O)c3cccc(F)c3)cc2N)cc1
  16% | / | / | -1%[46.1 µM] | 2% | -3% | -1% | -11%
> Cc1[nH]c2ccccc2c1C(=O)CN1CCCCC1C (configuration not stated)
  -21% | -1.2% | -6% | 22% | 6% | 13% | 8% | -7%
> S=c1[nH]c(-c2ccc(Br)cc2)cn1CCc1ccccc1
  9% | / | / | -1%[46.1 µM] | -21% | / | -4% | 14%
> Cc1cc(C)n2nc(SCc3nnc(-c4cccs4)o3)nc2n1
  10% | / | / | 2%[46.1 µM] | 1% | / | 5% | -5%
> Cc1nc2ccc(NC(=O)CS(=O)(=O)c3ccc(F)cc3)cc2s1
  39%[activator] | / | / | ? | -18%[46.1 µM] | / | -4% | -5%
> CCCCc1c(O)nc(SCC(=O)N2CCOCC2)[nH]c1=O
  -12% | -2.8% | 9% | 27% | 2% | -2% | 7% | 14%
> COc1ccc(C(=O)Nc2cccc(C(=O)N3CCN(C)CC3)c2)cc1
  -5% | 4.8% | -2% | -16% | 12% | 1% | -1% | 1%
> O=C1Nc2ccccc2/C1=C/c1cnc[nH]1
  112%[activator] | -0.1% | -5% | ? | 11% | -73% | -13% | -4%
> Cc1ccccc1NC(=O)c1cn(-c2ccccc2)nc1-c1ccccc1
  ? | -2.8%&-4.0% | -2%&11% | 2%[46.1 µM] | -7%[46.1 µM] | 1% | 12% | 0%
> Cn1c(Cc2ccccc2)nnc1SCC(=O)c1ccc(Br)s1
  21% | -3.5% | -8% | -7% | -1% | -10% | -19% | -5%
> COc1ccc(OC)c(NC(=O)Nc2ccccc2C)c1
  -5% | 9.6% | 7% | 23% | 0% | -14% | -3% | 0%
> CCOC(=O)C1CCN(C(=O)c2sc3nc(-c4ccc(F)cc4)cn3c2C)CC1
  -21% | -6.2% | ? | ? | 4% | -12% | -3% | 5%
> COc1cccc(NC(=S)/C(=C(\[O-])c2cc(C)n(-c3ccccc3F)c2C)[n+]2ccc(N(C)C)cc2)c1
  0% | / | / | / | / | 10% | 1% | -15%
> O=C1NC(=O)C2(COC(c3ccncc3)OC2)S1 (configuration not stated)
  ? | -0.2% | -7% | 19% | 16% | 25% | 14% | 4%
> CC(=O)c1ccc(C(=O)NC2CCCN(Cc3ccccc3F)C2)s1 (configuration not stated)
  -3% | / | / | 3% | ? | 10% | -2% | 2%
> COc1ccc(CCC(=O)N2CCN(C3CCCCC3)CC2)cc1
  -6% | 1.9% | 5% | -4% | -9% | -7% | 1% | -5%
> CCC(C)NCCOc1cccc(Br)c1 (configuration not stated)
  0% | 2.5% | -9% | -2% | -1% | 1% | -6% | -23%
> COc1ccc2cc(/C=C/C(=O)c3ccco3)c(Cl)nc2c1
  / | 0.5% | -13% | / | / | -4% | -10% | /
> Cc1cc(=O)[nH]c2ccc(S(=O)(=O)NCc3ccccc3)cc12
  11% | / | / | / | / | 0% | 2% | 9%
> COC(=O)CN(C)C(=O)c1ccc2nc(Cc3cccc(Cl)c3)oc2c1
  60%[activator] | / | / | / | / | -20% | 1% | 2%
> O=C(Cc1ccccc1)NCCCc1ccccc1
  8% | 5.3% | -12% | ? | 3% | -10% | 1% | 7%
> Cc1cc(Br)ccc1NC(=O)CN(C)C(=O)Cn1c(=O)cnc2ccccc21
  -17% | / | / | -4% | 0% | -11% | 1% | 1%
> O=C(O)c1ccc(S(=O)(=O)c2ccccc2)cc1
  -19% | 2.3% | -5% | -2% | 22% | -6% | 5% | 1%
> CC(C)CC(=O)NC1(C(F)(F)F)C(=O)N(Cc2ccccc2)C2=C1C(=O)CC(C)(C)C2 (configuration not stated)
  2% | 1.0% | 25% | 7% | -23% | 7% | 4% | 5%
> O=C(O)c1ccc(N2Cc3ccccc3C2)cc1O
  / | -8.2% | -6% | 17% | 11% | ? | 3% | 1%
> CCOC(=O)c1ccc(N2CCN(c3cc(C)ccc3C)CC2)c(NC(=O)Nc2ccc(Cl)cc2)c1
  -10% | 1.6% | ? | / | 5%[46.1 µM] | / | / | /
